# PrP UTR inh = inhibition of PrP 5' UTR reporter expression; 340,000 compounds, 0.35% hits; cell-based PrP 5' UTR mRNA reporter, plate reader; inhibition, % (no concentration beside the values); AID 488862;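 active = every replicate at 50% or more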;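 also: 0 = median of the neutral control wells; tested in H4 reporter cells; numbers are from one replicate; inactives centre near -14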
# Bead autofluor = counter-screen for toxin protease inhibitors: compound fluorescence; compound autofluorescence counterscreen, microsphere flow cytometry; active compounds read high; AID 624483; 360,000 compounds, 3.1% hits; fluorescence intensity (no concentration beside the values);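 active = at least 3 SD above the mean of all compounds, about 16000 in these data; inconclusive = too few beads counted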;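 also: 100 nL of 1 mM stock went into each well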
# ugtP null kill = compounds lethal to S. aureus RN4220 ugtP deletion mutant. OD600 growth, 16 h; some inactives read as strong as hits. growth inhibition, % (test concentration not listed). 330,000 compounds, 0.54% hits. AID 1259309;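 active = z-score under -3 and OD600 up to 0.15 on both plates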;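 also: plate controls were untreated wells for no effect and antibiotic for full effect; wells of about 80 µL received 100 nL stock; the first replicate is given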
# Mtb hypoxia rep = Mtb hypoxia fluorescent reporter inhibition | M. tuberculosis hypoxia-regulated fluorescent reporter, fluorescence | fluorescence inhibition, % (test concentration not listed) | 300,000 compounds, 0.1% hits | AID 1159583;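 active = 35 to 45% if threefold the growth effect, above 45% if 1.5-fold the growth effect; inactive = the rest, general growth blockers included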;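 also: wells of about 50 µL received 100 nL stock; 0% = vehicle wells and 100% = reference inhibitor wells; whole bacteria with a GFP reporter of the hypoxia response; strong numbers were not always called active; many hits fall short of the cut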
# RN4220 kill = S. aureus RN4220 growth inhibition | inhibition, % (no concentration beside the values) | 330,000 compounds, 0.33% hits | AID 1259311 | OD600, 16 h;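 active = z-score of -3 or lower and OD600 up to 0.18 on both plates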;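 also: plate controls were untreated cells for no effect and reference antibiotic for full effect; stock transfer was 100 nL into about 80 µL; one replicate is shown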
# BJeLR lethal = BJeLR cell viability loss; inhibition, % (no concentration beside the values); 300,000 compounds, 0.17% hits; AID 1554; BJeLR (HRASV12) viability, CellTiter-Glo ATP luminescence, 48 h; reference of the scale not given here;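 active = replicate mean above 50%; inconclusive = above 50% but judged a plate artefact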;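 also: 50 nL library stock added to about 25 µL; numbers are from one replicate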
# Mtb hypoxia rep growth = second read-out of Mtb hypoxia rep, no call of its own (marks repeat the call); growth inhibition, %; measured here: M. tuberculosis growth (absorbance);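 0% = vehicle and 100% = reference antibiotic; read after six days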
# * marks the source's active call; other numbers are inactive results; ? = inconclusive; · = not tested or not shown.
SMILES,PrP UTR inh,Bead autofluor,ugtP null kill,Mtb hypoxia rep,Mtb hypoxia rep growth,RN4220 kill,BJeLR lethal
Cc1ccccc1S(=O)(=O)c1c(C)cc(C)n(C)c1=O,-15,4457,4,1,-2,3.4,1
COc1cc2c(cc1OC)C(C)N(CCN1C(=O)c3ccccc3C1=O)CC2 (stereo not given),-6,4153,4,2,7,2.6,-3
COc1ccc(NC(=O)CN(C)C(=O)C(C)N2C(=O)c3ccccc3C2=O)cc1 (stereo not given),-24,?,5,2,-3,2.7,-2
CCCc1nnc(SCC(=O)Nc2cccc(C(F)(F)F)c2)o1,-20,4194,1,7,-4,-0.4,12
N#CC1=C(N)Oc2nc[nH]c(=O)c2C1c1cccs1 (stereo not given),-22,4818,-1,17,5,5.5,1
O=C1C(=O)N(Cc2cccnc2)C(c2ccccn2)/C1=C(/O)c1ccc(Br)cc1 (stereo not given),-7,4081,8,·,·,2.0,9
C=C1CCN([C@@H](CC(C)C)C(=O)Nc2nc3ccc(Cl)cc3s2)S(=O)(=O)c2ccccc21,-7,4443,·,·,·,·,11
CC1=C(C(=O)OCc2ccccc2)C(/C=C/c2ccccc2)N2C(=O)CCSC2=N1 (stereo not given),-10,2520,44,9,-7,0.2,-3
O=C(CCl)NC1CCCc2ccccc21 (stereo not given),-5,4518,9,15,26,4.6,3
CCOCCCNc1nc2c(c(=O)[nH]c(=O)n2C)n1CCCc1ccccc1,-55,9480,-4,5,3,0.7,-1
CC(c1nnc(SCC(=O)NC(=O)NCc2ccco2)n1-c1ccc(Cl)cc1)N(C)C (stereo not given),-10,7975,0,1,3,1.6,13
CCc1ccc(-c2nc(CS(=O)CC(=O)NCCCN3CCC(C)CC3)c(C)o2)cc1 (stereo not given),3,6332,9,2,4,4.9,12
C=CCOc1ccccc1CN(CCc1ccccc1)C(=O)c1cccc(S(C)(=O)=O)c1,-18,3911,21,8,6,-0.7,2
O=C(CN(c1cc(C(F)(F)F)ccc1Cl)S(=O)(=O)c1ccccc1)NCc1cccnc1,-15,5658,-1,9,-5,9.6,-3
CN1C(=O)N(C)c2ccc(C=O)c3cccc1c23,-28,2705,4,-12,5,-2.0,8
Cc1ccc2oc(=O)c(/C=C(\O)c3sc(C)nc3C)nc2c1,-15,9052,-3,5,4,9.0,5
COc1ccc(NC(=O)CN(C)C(=O)c2cnc(Cl)c(Cl)c2)cc1,-42,5510,0,4,-2,3.4,-9
CCC(=O)Nc1cccc(C2=NOC3(C2)C[C@H](C(N)=O)N(C(=O)CC#N)C3)c1 (stereo not given in full),-32,4027,·,·,·,·,-20
O=S(=O)(c1ccccc1)N1CCN=C1SCc1cccnc1,-5,2191,9,0,0,0.8,-6
Cc1ccc(NC(=O)c2n[nH]c(=O)c3ccccc23)cc1S(=O)(=O)N1CCOCC1,-6,3750,2,5,10,1.0,·
O=S(=O)(c1ccccc1)N1CCN(S(=O)(=O)c2ccc(F)cc2)CC1,-24,3719,4,3,-4,2.9,-13
NS(=O)(=O)c1ccc(NC(=O)c2ccc(-c3ccccc3)cc2)cc1,-15,4421,-2,2,-1,10,·
CC(C)CNC(=O)CSc1n[nH]c(=O)n1CCc1ccccc1,-2,3568,3,-2,4,2.8,-8
CCc1ccc2[nH]c(=O)c(CN(Cc3ccc(F)cc3)C(c3nnnn3CCN3CCOCC3)C(C)C)cc2c1 (stereo not given),-23,8708,-11,0,-2,-1.6,-7
CCOC(=O)c1c(NC(NC(C)=O)C(Cl)(Cl)Cl)sc2c1CCCC2 (stereo not given),-13,2713,-37,5,5,2.5,-8
Cc1c(Cl)cccc1NC(=S)NCc1ccc2c(c1)OCO2,-23,2687,-2,10,2,-7.7,4
Cc1ccc(C(=O)N/N=C\c2ccc(-c3ccc([N+](=O)[O-])cc3)o2)cn1,-16,4812,·,·,·,·,-9
COC(=O)c1c(NC(=O)c2ccccc2F)sc2c1C(C(=O)OC)CC2 (stereo not given),-8,3856,9,2,5,13,-2
O=S1(=O)N(Cc2ccc(F)cc2)CCCN1Cc1ccccc1Cl,-19,4131,5,7,-5,1.4,-7
COc1cc(OC)c(C(=O)NCC(c2cccs2)N(C)C)cc1OC (stereo not given),-5,4293,2,9,11,4.0,-5
Cc1ccccc1C(=O)N1CCC(C(=O)Nc2sccc2C(N)=O)CC1,·,5065,7,15,9,8.5,·
O=C(COc1ccccc1)NS(=O)(=O)c1ccc(Cl)cc1,-15,5639,2,7,1,3.0,-5
CCCCOc1cccc(C(=O)NC(=S)Nc2cccc(C(F)(F)F)c2)c1,-4,2447,-1,3,7,7.4,-2
CCN(CC)C(=O)c1cc(S(=O)(=O)N2CCCCC2)c[nH]1,5,5755,2,2,-5,0.5,12
CC(C)C(C(=O)OCC(=O)c1ccc2c(c1)NC(=O)CO2)N1C(=O)c2ccccc2C1=O (stereo not given),-30,9357,-9,6,5,-2.3,-7
O=C(CNCC1CCCCC1)Nc1ccc(N2CCCCC2)cc1,·,·,7,17,4,0.5,-4
C=CCOc1ccc2ccccc2c1CNc1ncn[nH]1,-8,11273,0,6,-1,-0.4,-3
CN(C)CCCOC(=O)CCc1ccccc1,-18,4937,-1,·,·,-1.4,2
O=C(CNC(=O)c1ccc(Oc2ccccc2)cc1)OC1CCCCC1=O (stereo not given),-8,3974,2,·,·,-0.5,-5
COc1cc(NS(=O)(=O)c2ccc(C)cc2)ccc1-n1cnnn1,-17,7382,7,15,4,9.4,-3
Cc1nn(Cc2nc(-c3cccs3)no2)c(C)c1Br,-9,6081,-1,·,·,-3.5,-10
COc1ccc(Cc2nnc(SCC(=O)Nc3ccc(C)cc3)n(N)c2=O)cc1,-25,5790,-1,-9,1,-3.1,5
Cc1c(NC(=O)C(C)OC(=O)c2ccccc2O)c(=O)n(-c2ccccc2)n1C (stereo not given),-18,3978,2,6,-6,0.8,·
Cc1cccc(NC(=O)CSc2n[nH]c(-c3ccncc3)n2)c1,-7,3719,-1,0,8,1.3,4
Cc1ccccc1O,-5,4857,-23,·,·,0.7,·
CCOC(=O)c1ccc(NC(=O)C(=O)NCc2ccccn2)cc1,-13,4828,1,10,-2,4.3,3
O=C(NS(=O)(=O)Oc1ccccc1F)OC[C@@H]1CCCN2CCCCC12 (stereo not given in full),-2,4383,-3,-4,-4,-5.1,6
O=C(CN1C(=O)c2ccccc2S1(=O)=O)c1ccc(OC(F)F)cc1,67*,5858,5,4,8,1.4,3

# For convenience, 6 of the compounds above.
SMILES,PrP UTR inh,Bead autofluor,ugtP null kill,Mtb hypoxia rep,Mtb hypoxia rep growth,RN4220 kill,BJeLR lethal
Cc1c(NC(=O)C(C)OC(=O)c2ccccc2O)c(=O)n(-c2ccccc2)n1C (stereo not given),-18,3978,2,6,-6,0.8,·
Cc1cccc(NC(=O)CSc2n[nH]c(-c3ccncc3)n2)c1,-7,3719,-1,0,8,1.3,4
Cc1ccccc1O,-5,4857,-23,·,·,0.7,·
CCOC(=O)c1ccc(NC(=O)C(=O)NCc2ccccn2)cc1,-13,4828,1,10,-2,4.3,3
O=C(NS(=O)(=O)Oc1ccccc1F)OC[C@@H]1CCCN2CCCCC12 (stereo not given in full),-2,4383,-3,-4,-4,-5.1,6
O=C(CN1C(=O)c2ccccc2S1(=O)=O)c1ccc(OC(F)F)cc1,67*,5858,5,4,8,1.4,3

# Additional entries.
SMILES,PrP UTR inh,Bead autofluor,ugtP null kill,Mtb hypoxia rep,Mtb hypoxia rep growth,RN4220 kill,BJeLR lethal
O=C(COc1ccccc1)N1CCc2ccccc21,-12,2110,4,-15,-12,2.8,-2
COc1ccc(N2CCN(C(=O)c3c(Cl)cnn3C)CC2)cc1,-8,4255,12,11,-24,3.0,-11
Cc1cc(NC(=O)CSc2nnc3ccccn23)no1,-25,17051*,12,8,18,-0.7,1
COc1cc(C(c2sc3nc(C)nn3c2O)N2CCOCC2)cc(OC)c1OC (stereo not given),-14,5915,-6,-1,-3,-13,1
COc1ccc(OCCn2cnc(Cl)c2Cl)cc1,-31,3969,4,2,8,3.1,-10
O=C(N/N=C\c1cn[nH]c1-c1ccccc1)c1ccc([N+](=O)[O-])cc1,-5,2146,·,·,·,·,7
CN(Cc1ccccc1)C(=O)C1CCN(S(=O)(=O)c2ccc(-n3cnnn3)cc2)CC1,-3,5996,4,15,0,6.0,2
CCCCNC(=O)c1cn(C)c2ccc(S(=O)(=O)N3CCCC3)cc2c1=O,-3,5705,3,9,5,-1.0,-4
CCCCN(C)C(=O)c1nc2ccccn2c1CN(C)Cc1csc(C)n1,-15,2461,7,11,18,1.3,-4
Cc1cc(C(F)(F)F)c(C#N)c(Sc2ccccc2)n1,-9,3296,·,·,·,·,-12
CCCN(CC(=O)Nc1ccccc1C)C(=O)C1CC(=O)N(c2ccc(C)cc2)C1 (stereo not given),-5,5580,5,-1,9,3.1,·
CN1CCN(C(=O)c2ccc(F)c(F)c2)CC1,-14,4299,3,0,5,1.2,-2
CC(=O)Nc1cccc(NC(=O)c2cc(-c3cccnc3)nc3ccc(Br)cc23)c1,·,13262,-2,7,3,-4.5,6
O=C(O)/C=C/C(=O)NNc1ncnc2ccccc12,1,3285,3,7,-1,-1.5,6
COc1ccc(/C=N/NC2=NCCCCC2)c(OC)c1,-25,3880,·,·,·,·,5
COc1ccccc1/C(C)=N/NC(=S)NCc1ccccc1,-6,4014,·,·,·,·,22
CC(c1ccco1)N(C(=O)c1ccc(F)cc1)c1ccccn1 (stereo not given),-24,4268,7,20,10,5.6,-4
COCCN(CCOC)c1nc(-c2ccc(Cl)cc2)nc2ccccc12,-17,4090,32,12,13,-17,0
CCNC(=O)NC(=O)C(C)OC(=O)c1oc2ccc(OCC)cc2c1C (stereo not given),-4,4355,1,4,6,0.8,4
CCOC(=O)C1CCN(CCC(=O)Nc2cc(C)ccc2C)CC1,-28,3509,·,·,·,·,-3
COC(=O)C(CO)Nc1ncnc2onc(-c3ccc(F)cc3)c12 (stereo not given),-1,3817,3,9,10,1.3,-3
Cc1ccc(CNC(=O)c2cc(-c3ccccc3)n(Cc3cc(C)no3)n2)cc1,-13,3836,0,-1,9,-0.1,·
CCOC(=O)N1CCC(NC(=O)C(C)n2c3ccccc3c3cnn(C)c(=O)c32)CC1 (stereo not given),-4,3154,-9,7,3,-6.9,-5
COCc1nn2c(N)c(-c3ccccc3)cnc2c1-c1ccccc1,-50,3266,2,-7,-1,0.9,-4
CCOc1ccc(-c2nc3n(c(=O)c2C#N)CCCS3)cc1,-14,3262,-7,·,·,2.3,7
CC(C)NC(NC(=O)/C=C/c1ccccc1)C(Cl)(Cl)Cl (stereo not given),-16,4833,5,12,-1,4.2,-2
COCCN(C(=O)CSc1nnc(Nc2ccccc2F)s1)c1c(N)n(Cc2ccccc2)c(=O)[nH]c1=O,-20,6210,6,12,3,2.0,-9
Cc1onc(-c2ccccc2)c1C(=O)N/N=C/c1c[nH]c2ccccc12,-4,5005,·,·,·,·,0
CCCCCOP(=O)(c1ccccc1)c1ccccc1,-20,11215,-1,0,0,6.6,5
CCc1ccc(C(=O)Nc2nnn(CC)n2)cc1,-12,11086,0,2,10,3.4,-3
CCOC(=O)N1CCN(c2ccc(C(C)=O)cc2F)CC1,-22,4558,4,·,·,3.4,0
CCOC(=O)c1csc(NC(=O)CSc2nnnn2-c2cccc(OC)c2)n1,-10,4599,-5,·,·,0.6,2
Cc1ccc(C(=O)NC(=S)Nc2cccc(NC(=O)c3ccccc3Cl)c2)cc1[N+](=O)[O-],10,1942,1,6,4,11,-2
CCn1cc(C(=O)c2ccccc2)c2ccccc21,-18,22254*,10,11,12,1.3,-7
COc1ccc(NS(=O)(=O)c2cccc(C(=O)N/N=C/c3ccc4c(c3)OCCO4)c2)cc1,-28,2587,·,·,·,·,-4
Cc1ccc2nc(SCC(=O)Nc3nonc3C)[nH]c2c1,-20,3814,4,12,4,-1.7,0
CC(/C=N/NC(=O)c1n[nH]c2c1CCC2)=C\c1ccccc1,38,3024,·,·,·,·,49

# Assay outcomes from PubChem.
